HTT prom inh = HTT promoter inhibition; HEK293 HTT promoter firefly luciferase reporter (activity 0% = vehicle and -100% = no light), 24 h; Potency, µM (titrated, usually from 57.5 µM), without a hit: at the top dose activity change, negative = inhibition, actives largely listed as inhibitors; hit rate 0.93% among 48,000; active = well fitted inhibition curve with a large enough effect; inconclusive = small, poorly fitted or top-dose-only effect; inactive = no such curve, though single readings can be large or run the other way; note: nearly all actives have a fitted effect of over 50% in size
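HEK293 Fluc reporter, 2,500 cells/well, 24 h pre-culture; cpds up to 57.5 uM final, 24 h 37 degrees C; Dual-Glo, 10 min RT; normalized vehicle = 0%, zero RLU = -100%.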
PMP22 txn = modulators of PMP22 gene transcription in S16 Schwann cells. AID 1508649. hit rate 2% among 43,000. S16 Pmp22-F2sN Schwann cells (luciferase reporters placed in the Pmp22 gene), FLuc/NLuc coincidence luminescence, 24 h. Potency, µM (titrated, usually from 57.5 µM), without a hit: at the highest dose activity change, negative = inhibition, usual class: inhibitors; active = clear falling dose curves in both reporters; inconclusive = both reporters move, but less clearly or upward; inactive = either reporter flat; the % is the NLuc reporter signal; note: % is set by controls: 0 for no effect and ±100 for the full control effect; some results filed as inactive show a strong effect at the top dose
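Reporter cells (S16 Pmp22-F2sN, 500–1,000 per well) exposed to compounds for 24 h, 37C, 5% CO2; lysis with FLuc read after 10 min, then Stop&Glo and NLuc read after 10 min.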
The depositor's hits bear a star; [ ] = remark or other dose. Potency is the fitted concentration of half-maximal effect. Some of the compounds tested; rates above refer to the full screens.

For CC(=O)CSc1nnc2[nH]c(=O)cc(N)n12 the results were HTT prom inh -9.2% and PMP22 txn inconclusive.
For COc1ccccc1N1CCN(C(=O)CSc2n[nH]c(-c3ccccc3)n2)CC1 the results were HTT prom inh -19.3% and PMP22 txn 0.6%.
`Cc1ccn2c(=O)c(C(=O)NCc3ccccc3Cl)c(O)nc2c1` gave HTT prom inh -4.3% and PMP22 txn -2.5%.
`Cc1ccc(N2CCN(C(=O)c3c(C)oc4ncnc(N5CCCCC5)c34)CC2)c(C)c1` gave HTT prom inh inconclusive and PMP22 txn inconclusive.
`Cc1nc(-c2ccccc2)sc1-c1ccc(SCC(=O)NCc2ccccc2)nn1` gave HTT prom inh 6.1% and PMP22 txn -50.6%.
`Nc1c(C(=O)c2ccc3c(c2)OCO3)sc(Nc2ccccc2F)c1S(=O)(=O)c1ccccc1` gave HTT prom inh -26.0% and PMP22 txn 2.3%.
`CC(=CC(=O)Nc1ccccc1C(=O)O)c1ccc2ccccc2c1` gave HTT prom inh 8.8%.
For COc1ccc2c(CNCc3cccs3)c(C(=O)O)n(Cc3cccc(F)c3)c2c1 the results were HTT prom inh -16.3% and PMP22 txn 5.1%.
`Cc1cc(C)cc(NC(=O)c2c(C)oc3nc(C)nc(N4CCCC4)c23)c1` gave HTT prom inh 1.5% and PMP22 txn inconclusive.
For CCOC(=O)Cn1cnc2c(cnn2-c2ccc(C)c(C)c2)c1=O the results were HTT prom inh 56.5%[activator] and PMP22 txn -5.3%.
Screening Cc1ccc(CCNC(=O)c2oc(=O)c3ccccc3c2-c2ccc(C)cc2)cc1 returned HTT prom inh -19.5% and PMP22 txn -11.6%.
Cc1ccccc1NC(=O)C1CCC(CNS(=O)(=O)c2ccc3c(c2)C(C)(C)C(=O)N3C)CC1 (configuration not stated) was read as HTT prom inh inconclusive and PMP22 txn -15.9%.
Screening COC(=O)c1ccc(Cn2c(SCc3ccccc3)nc3ccncc32)cc1 returned HTT prom inh -2.1% and PMP22 txn -1.8%.
Cc1ccccc1OCC(=O)N(Cc1ccc(C(C)C)cc1)C1CCS(=O)(=O)C1 (configuration not stated) was read as HTT prom inh inconclusive and PMP22 txn -3.6%.
For Nc1ccc([N+](=O)[O-])cc1O the results were HTT prom inh -18.5%[116 µM].
For Cc1cccc(Cn2c(=O)n(CC3CCC(C(=O)NC(C)C)CC3)c(=O)c3sccc32)c1 (configuration not stated) the results were HTT prom inh -7.6% and PMP22 txn 1.0%.
`Fc1ccc(-c2nc(-c3cccs3)c(-c3cccs3)[nH]2)cc1` gave HTT prom inh inconclusive and PMP22 txn inconclusive.
CCOC(=O)[C@H](CCc1ccccc1)N[C@@H](C)C(=O)N1[C@H](C(=O)O)C[C@@H]2CCC[C@@H]21 was read as HTT prom inh -3.1%.
Screening CCc1cccc(C)c1NC(=O)c1cc(S(=O)(=O)NCc2ccccc2Cl)ccc1F returned HTT prom inh inconclusive and PMP22 txn -21.6%.
Screening N[C@H](Cc1c[nH]c2ccccc12)C(=O)O returned HTT prom inh 2.2%.
For Cc1ccc2oc(C(=O)Nc3nnc(CC(C)C)s3)cc(=O)c2c1 the results were HTT prom inh -0.7%[11.5 µM] and PMP22 txn 0.0%.
`CCC(=O)N1CCc2cc(Br)cc(S(=O)(=O)CCC(=O)NCCc3ccc(Cl)cc3)c21` gave HTT prom inh -14.3% and PMP22 txn -5.6%.
CC1=C(c2ccc(C)c(C)c2)S(=O)(=O)N(Cc2ccc(C(=O)NCc3ccccc3F)cc2)C1=O was read as HTT prom inh -37.9% and PMP22 txn -17.3%.
For COc1cc(OC)c(N(C)C(=O)c2cc3c(s2)-c2ccccc2OC3)cc1Cl the results were HTT prom inh -21.4% and PMP22 txn 14.3%.
Screening Cc1ccc2nc(COc3ccccc3NC(=O)COc3ccc(F)cc3)cc(=O)n2c1 returned HTT prom inh -4.6% and PMP22 txn -13.9%.
Screening O=C(NCCn1cc(SCc2ccc(C(F)(F)F)cc2)c2ccccc21)c1cccs1 returned HTT prom inh inconclusive and PMP22 txn inconclusive.
For Cc1cccc(NC(=O)Cn2c(=O)n(CCCS(=O)(=O)C3CCCCC3)c(=O)c3ccccc32)c1 the results were HTT prom inh -16.1% and PMP22 txn -1.2%.
For O=C(c1ccc2c(=O)n(CCc3ccccc3)c(=O)[nH]c2c1)N1CCN(c2ccc(F)cc2)CC1 the results were HTT prom inh inconclusive and PMP22 txn -28.5%.
Screening COc1ccc(OC)c(NC(=O)Nc2cccc(OCc3cc(=O)n4cc(C)ccc4n3)c2)c1 returned HTT prom inh 40.7%[activator] and PMP22 txn -7.3%.
For COc1ccc2c(c1)c1c(c(=O)n(Cc3ccccc3)c(=O)n1CC(=O)NCc1ccccc1)n2C the results were HTT prom inh -13.0% and PMP22 txn 1.5%.
CC(C)c1ccc(S(=O)(=O)NCc2nc3cccnc3n2Cc2ccc(F)cc2)cc1 was read as HTT prom inh -13.0% and PMP22 txn 5.5%.
Screening Cc1ccc(NC(=O)CSc2ccc3nnc(CCNS(=O)(=O)c4ccccc4)n3n2)cc1Cl returned HTT prom inh -11.4% and PMP22 txn inconclusive.
For CCc1nnc(SC(CC)C(=O)Nc2ccc(OC)c(Cl)c2)c2cc3occc3n12 (configuration not stated) the results were HTT prom inh inconclusive and PMP22 txn inconclusive.
Screening CCOc1ccc(C(=O)Nc2ccccc2OCc2cc(=O)n3ccccc3n2)cc1 returned HTT prom inh -6.1% and PMP22 txn -39.5%.
CCOc1ccccc1NC(=O)Cn1ccn(Cc2ccc(C)cc2)c(=O)c1=O was read as HTT prom inh -25.0% and PMP22 txn -14.3%.
`Cc1ccccc1OCC(=O)Nc1cccc(C(=O)OCc2cc(=O)n3c(C)csc3n2)c1` gave HTT prom inh inconclusive and PMP22 txn inconclusive.
`N#Cc1ccc(S(=O)(=O)N2CCC(Oc3cccc(C(F)(F)F)c3)CC2)cc1` gave HTT prom inh -26.7% and PMP22 txn -23.0%.
For CC1CCc2noc(NC(=O)c3ccccc3[N+](=O)[O-])c2C1 (configuration not stated) the results were HTT prom inh -25.3% and PMP22 txn -47.6%.
Cc1ccc2c(CC(=O)N(Cc3ccc(Cl)cc3)Cc3ccco3)coc2c1 was read as HTT prom inh -32.7% and PMP22 txn inconclusive.
`CCc1ccc(-c2cc(C)no2)cc1S(=O)(=O)NCc1ccc(OC)cc1` gave HTT prom inh inconclusive and PMP22 txn 6.05µM*.

Quoted from above (seven entries):
Screening COc1ccc(OC)c(NC(=O)Nc2cccc(OCc3cc(=O)n4cc(C)ccc4n3)c2)c1 returned HTT prom inh 40.7%[activator] and PMP22 txn -7.3%.
For COc1ccc2c(c1)c1c(c(=O)n(Cc3ccccc3)c(=O)n1CC(=O)NCc1ccccc1)n2C the results were HTT prom inh -13.0% and PMP22 txn 1.5%.
CC(C)c1ccc(S(=O)(=O)NCc2nc3cccnc3n2Cc2ccc(F)cc2)cc1 was read as HTT prom inh -13.0% and PMP22 txn 5.5%.
Screening Cc1ccc(NC(=O)CSc2ccc3nnc(CCNS(=O)(=O)c4ccccc4)n3n2)cc1Cl returned HTT prom inh -11.4% and PMP22 txn inconclusive.
For CCc1nnc(SC(CC)C(=O)Nc2ccc(OC)c(Cl)c2)c2cc3occc3n12 (configuration not stated) the results were HTT prom inh inconclusive and PMP22 txn inconclusive.
Screening CCOc1ccc(C(=O)Nc2ccccc2OCc2cc(=O)n3ccccc3n2)cc1 returned HTT prom inh -6.1% and PMP22 txn -39.5%.
CCOc1ccccc1NC(=O)Cn1ccn(Cc2ccc(C)cc2)c(=O)c1=O was read as HTT prom inh -25.0% and PMP22 txn -14.3%.

Following part
`COc1ccccc1CNC(=O)CCn1c(=O)c2ccccc2n(CC(=O)Nc2ccc(C)cc2C)c1=O` gave HTT prom inh -4.7% and PMP22 txn -15.2%.
For COc1ccc(-c2nc3ccccc3o2)cc1NC(=O)C(C)Oc1ccc(Cl)cc1Cl (configuration not stated) the results were HTT prom inh -1.3% and PMP22 txn 13.5µM*.
O=C(NC1CC(=O)N(c2ccc(Cl)cc2)C1)C1CCCCC1 (configuration not stated) was read as HTT prom inh -3.0% and PMP22 txn -6.6%.
For Cc1cccc(Nc2cc(C)nc3nc(-c4ccccc4)nn23)c1 the results were HTT prom inh -14.0% and PMP22 txn 4.5%.
Fc1cccc(F)c1-c1nc(-c2ccncc2)no1 was read as HTT prom inh 52.3%[activator] and PMP22 txn -16.0%.
For O=C(NCc1ccccc1Cl)c1ccc(NC(=O)N2CCCCc3ccccc32)cc1 the results were HTT prom inh -22.2% and PMP22 txn 7.3%.
Cc1cccc(NC(=O)CN2C(=O)c3ccccc3Sc3ncccc32)c1C was read as HTT prom inh -8.0% and PMP22 txn 6.5%.
Screening CCCN(CCC)c1nn2c(=O)c(C(=O)NCc3cccc(OC)c3)cnc2s1 returned HTT prom inh -5.5% and PMP22 txn -11.2%.
CCc1ccc(OCC(=O)N(Cc2ccc(C)cc2)Cc2ccco2)cc1 was read as HTT prom inh -23.9% and PMP22 txn inconclusive.
`CCC(C)NC(=O)CCC(=O)N1Cc2ccccc2Oc2ncccc21` (configuration not stated) gave HTT prom inh 3.6% and PMP22 txn 5.1%.
For COc1ccccc1Cc1nc2ccccc2nc1SCC(=O)N1CCN(c2ccccc2)CC1 the results were HTT prom inh 0.5% and PMP22 txn inconclusive.
`Cc1ccc(C)c(CNC(=O)c2cnc3sc(N4CCCC4)nn3c2=O)c1` gave HTT prom inh -18.7% and PMP22 txn -10.7%.
Cc1ccccc1Nc1nn2c(=O)c3ccc(C(=O)NCc4ccccc4)cc3nc2s1 was read as HTT prom inh inconclusive and PMP22 txn inconclusive.
`Cc1ccc(O)c(C(CC(=O)NCC2(c3ccccc3)CCCC2)c2ccccc2)c1` (configuration not stated) gave HTT prom inh inconclusive and PMP22 txn inconclusive.
`COc1ccc(CNCc2c(C(=O)O)c(C)n(Cc3ccc(Cl)cc3)c2C)c(OC)c1` gave HTT prom inh -15.4% and PMP22 txn inconclusive.
COc1cc2cc(CNc3ccc(C)cc3)c(=O)n(CC(=O)Nc3ccc(F)cc3F)c2cc1OC was read as HTT prom inh 34.2%[activator] and PMP22 txn -48.8%.
`C=CCc1ccc(O)c(OC)c1` gave HTT prom inh 9.8%.
Screening COc1ccc(CCNC(=O)C(=O)NCC(c2ccco2)S(=O)(=O)c2cccs2)cc1 (configuration not stated) returned HTT prom inh inconclusive and PMP22 txn 2.7%.
For CC(C)Cn1c(=O)c2ccccc2n2c(-c3ccc(Br)cc3)nnc12 the results were HTT prom inh -9.2% and PMP22 txn 3.6%.
For O=C(Nc1ccc(F)cc1F)c1c2c(nc3ccccc13)C(=O)N(C1CCCCC1)C2 the results were HTT prom inh -16.7% and PMP22 txn 5.9%.
`CCOc1ccc(CN2CCc3nc(Nc4ccc(OC)cc4OC)ncc3C2)cc1` gave HTT prom inh -19.4% and PMP22 txn -7.3%.
For Cc1ccc(-c2nc(CS(=O)(=O)CC(=O)N3CCN(c4ccccc4)CC3)c(C)o2)cc1 the results were HTT prom inh inconclusive and PMP22 txn inconclusive.
`Cc1ccc(Cl)cc1NC(=O)Cn1c(=O)c(CNc2ccccc2)cc2cc3c(cc21)OCCO3` gave HTT prom inh -15.7% and PMP22 txn inconclusive.
For CCCCOc1nnc(-c2ccc(OCC)cc2)c2ccccc12 the results were HTT prom inh inconclusive and PMP22 txn inconclusive.
Screening CCN(CCCNC(=O)c1nn(-c2ccc(C)cc2)c(=O)c2c1c1ccccc1n2C)c1cccc(C)c1 returned HTT prom inh -4.8% and PMP22 txn inconclusive.
`CSc1ncc(C(=O)Nc2ccc(C)c(Cl)c2)c(-c2ccccc2)n1` gave HTT prom inh inconclusive and PMP22 txn -15.8%.
For COc1cc(NC(=O)N2CCC3(CC2)Nc2cc(F)ccc2-n2cccc23)cc(OC)c1OC the results were HTT prom inh inconclusive and PMP22 txn inconclusive.
Screening CCOc1ccc(C(=O)NCC(c2cccs2)S(=O)(=O)c2ccccc2)cc1 (configuration not stated) returned HTT prom inh -18.6% and PMP22 txn -25.6%.
For Cc1cccc(N2CCN(C(=O)CCCCn3c(=O)[nH]c4ccsc4c3=O)CC2)c1C the results were HTT prom inh inconclusive and PMP22 txn inconclusive.
For O=C(O)CCc1nnc2cnc3ccccc3n12 the results were HTT prom inh 1.4% and PMP22 txn -16.3%.
For Cn1c(C(=O)NCCc2ccccc2)cc2c(=O)n3ccccc3nc21 the results were HTT prom inh 54.3%[activator] and PMP22 txn -2.8%.
`Cc1cc(C)c(Cn2c3ccccc3c3cnn(CC(=O)NCCC4=CCCCC4)c(=O)c32)c(C)c1` gave HTT prom inh -12.9% and PMP22 txn 1.2%.
`CCOC(=O)Cn1c(=N)n(Cc2ccc(C(C)(C)C)cc2)c2ccccc21` gave HTT prom inh inconclusive and PMP22 txn inconclusive.
CCOc1cc(C(=O)OCc2cc(=O)n3nc(CC)sc3n2)cc(OCC)c1OCC was read as HTT prom inh -1.1% and PMP22 txn inconclusive.

Arranged by number of heavy atoms (lowest first): part of the list above
For CCCCOc1nnc(-c2ccc(OCC)cc2)c2ccccc12 the results were HTT prom inh inconclusive and PMP22 txn inconclusive.
`Cc1ccc(Cl)cc1NC(=O)Cn1c(=O)c(CNc2ccccc2)cc2cc3c(cc21)OCCO3` gave HTT prom inh -15.7% and PMP22 txn inconclusive.
`Cc1cc(C)c(Cn2c3ccccc3c3cnn(CC(=O)NCCC4=CCCCC4)c(=O)c32)c(C)c1` gave HTT prom inh -12.9% and PMP22 txn 1.2%.

Screening results: PubChem BioAssay, National Center for Advancing Translational Sciences (NCATS)
